Screens as filed in PubChem.
KCNQ2 enhance – KCNQ2 (rat) channel potentiation; B-score at 10 µM; 310,000 tested, 0.54% active; O88943; AID 2239; CHO-K1 KCNQ2, FluxOR thallium flux fluorescence; stronger effect = higher value;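 active means fluorescence ratio B-score at least 3 SD of library B-scores, with initial fluorescence B-score within 3 SD, cut at about 5.3 in these data; same plate scores as AID 2156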;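 further: B-score of peak minus minimum over baseline fluorescence ratio after K+ and Tl+ stimulus; positive B-score means potentiation of KCNQ2 with more thallium influx and brighter signal; only the inactives scoring about 0 or higher are listed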
Target sequence (O88943 whole entry, looked up): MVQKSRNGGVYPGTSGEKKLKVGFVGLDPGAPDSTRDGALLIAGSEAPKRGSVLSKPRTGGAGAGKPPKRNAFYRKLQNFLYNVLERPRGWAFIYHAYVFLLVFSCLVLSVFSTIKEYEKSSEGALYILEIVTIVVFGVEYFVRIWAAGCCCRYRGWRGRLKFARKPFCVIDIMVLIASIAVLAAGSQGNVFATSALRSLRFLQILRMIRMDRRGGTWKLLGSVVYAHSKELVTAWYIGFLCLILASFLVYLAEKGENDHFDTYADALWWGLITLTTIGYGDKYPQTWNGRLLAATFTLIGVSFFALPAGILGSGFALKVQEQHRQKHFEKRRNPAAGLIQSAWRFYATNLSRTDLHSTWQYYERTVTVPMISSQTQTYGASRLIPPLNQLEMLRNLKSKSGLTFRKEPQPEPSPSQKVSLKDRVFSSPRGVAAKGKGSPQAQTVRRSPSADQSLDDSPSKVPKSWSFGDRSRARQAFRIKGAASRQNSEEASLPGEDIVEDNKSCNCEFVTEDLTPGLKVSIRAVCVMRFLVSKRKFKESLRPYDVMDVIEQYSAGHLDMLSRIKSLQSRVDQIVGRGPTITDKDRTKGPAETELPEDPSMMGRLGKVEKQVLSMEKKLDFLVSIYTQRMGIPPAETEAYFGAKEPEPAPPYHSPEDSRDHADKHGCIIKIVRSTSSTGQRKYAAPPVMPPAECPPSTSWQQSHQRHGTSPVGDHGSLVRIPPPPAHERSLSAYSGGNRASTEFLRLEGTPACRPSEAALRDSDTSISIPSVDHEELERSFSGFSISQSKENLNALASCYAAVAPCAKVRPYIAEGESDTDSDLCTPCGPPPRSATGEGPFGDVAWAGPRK
KCNQ2 enhance baseline – also measured in KCNQ2 enhance; calls as there; B-score; compound at 10 µM; measured here: initial fluorescence intensity artifact check;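 brightness before thallium and not channel activity; 0 = typical well and far values either way flag optical interference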
* marks the source's active call; other numbers are inactive results; · = no result given. Only part of the results is shown. The share of hits here may be higher or lower than overall.

KCNQ2 enhance	KCNQ2 enhance baseline	molecule
1.1	-2.8	CC(NC(=O)c1ccccc1)c1nnc(SCC(=O)NC2CCCC2)n1C (stereo unspecified)
0.26	-2	Cc1ccc(S(=O)(=O)N(C)C(=O)NC(=O)NS(=O)(=O)c2ccccc2)cc1
0.57	-0.27	CCCCN(CC)Cc1ccc(CNC(=S)Nc2c(C)cc(C)cc2C)o1
0.03	0.28	CCc1cc2cc3c(cc2nc1SCC(=O)Nc1nnc(C)s1)OCCO3
1.1	-0.04	CCN1CCN(C(c2cc3cc4c(cc3[nH]c2=O)OCO4)c2nnnn2C(C)(C)CC)CC1 (stereo unspecified)
0.08	-0.03	COc1ccc(NC(=O)CCCC2CCCCC2)cc1S(=O)(=O)N1CCCCC1
0.13	-0.05	CCOC(=O)/C(C#N)=C\C1=C(N2CCCC2)CC(C)(CC)OC1 (stereo unspecified)
0.77	0.42	Cn1c(NC(=O)c2cccs2)cc(=O)n(C)c1=O
0.74	-0.36	COc1cc(C(=O)NC2=NCCS2)cc(OC)c1OC
0.91	0.02	COc1ccccc1CNc1nc(C)c(C(=O)N(C)C)s1
0.12	-0.08	O=C(Nc1ccccc1)OCCNC(=O)c1ccccc1
0.2	-0.56	CC(C)c1ccc(N(CCc2ccccn2)C(=O)C(C)(C)C)cc1
0.05	-1.8	CC1(C)CC(=O)c2c(O)cc(OCC(=O)N3CCN(c4ccccc4)CC3)cc2O1
0.65	0.07	COc1ccc(CC(C#N)(CO)c2nc3ccccc3[nH]2)cc1 (stereo unspecified)
1.4	-0.27	COc1ccccc1-c1c(C(F)(F)F)oc2cc(OC(=O)c3ccccc3[N+](=O)[O-])ccc2c1=O
0.08	0.77	COc1ccc(N(CC(O)CN2CCOCC2)S(=O)(=O)c2ccc(C)cc2)cc1 (stereo unspecified)
0.57	-1.2	CC1(C)CC(c2csc(N)n2)CCO1 (stereo unspecified)
0.13	0.03	Cn1c(N)c(C(=O)CSc2ccccn2)c(=O)n(C)c1=O
1	0.1	CC(C)c1[nH]nc2c1C1(CCN(Cc3ccccc3)CC1)C(C#N)=C(N)O2
0.57	0.08	CCCn1c(N)c(N(C)C)c(=O)n(CC(=O)Nc2ccc(OC(F)(F)F)cc2)c1=O
0.16	0.58	CCOc1ccc(/C=N/NC(=O)CCC(=O)Nc2ccc(F)cc2)cc1
0.5	-0.46	Cc1ccc(OCc2ccc(C(=O)NNC(=S)NCC3CCCO3)o2)c([N+](=O)[O-])c1 (stereo unspecified)
1.2	-0.17	CCOc1ccc(CCNC(=O)COC(=O)/C=C/c2ccc(OCC#N)c(OC)c2)cc1OCC
0.24	-1.3	COC(C[C@H]1O[C@@H]1C(=O)[C@H](C)OCc1ccccc1)OC
1.9	0.17	CCOC(=O)c1csc(NC(=O)c2cccs2)n1
0.04	-0.01	COc1cccc(Nc2ncnc3c2cnn3C)c1
1.2	-0.78	O=C(CN1CCC(c2nc3ccccc3s2)CC1)NCc1ccccc1
0.59	-0.52	COC(=O)COc1ccc(S(=O)(=O)Nc2ccc(NC(C)=O)cc2)cc1C
0.65	0.28	CC(C)CN1CN(S(=O)(=O)c2cccs2)c2nc3ccccc3nc21
0.64	-0.4	O=C1CC(c2cc(-c3ccccc3)no2)C1

Ordered by the number under KCNQ2 enhance baseline (high to low): 3 from the list above.
KCNQ2 enhance	KCNQ2 enhance baseline	molecule
0.77	0.42	Cn1c(NC(=O)c2cccs2)cc(=O)n(C)c1=O
0.12	-0.08	O=C(Nc1ccccc1)OCCNC(=O)c1ccccc1
0.26	-2	Cc1ccc(S(=O)(=O)N(C)C(=O)NC(=O)NS(=O)(=O)c2ccccc2)cc1

Later entries:
KCNQ2 enhance	KCNQ2 enhance baseline	molecule
1.9	-0.55	Cc1c(C(=O)O)sc2ncn(C)c(=O)c12
0.64	0.38	COc1ccc(-n2c(=O)cc(N3CC(C)OC(C)C3)[nH]c2=O)cc1 (stereo unspecified)
2.4	-2.4	NC(=O)NCCCC(=O)OCC(=O)c1ccc2ccccc2c1
0.09	-0.86	COc1ccc(C2SCCN2C(=O)c2ccc([N+](=O)[O-])cc2)cc1 (stereo unspecified)
1.2	0.09	CCOC(=O)c1c(C)c(C(=O)NCc2ccccn2)c(C)n1CC
0.85	-0.84	CCN(CC(=O)N1CCN(Cc2ccccc2)CC1)S(=O)(=O)c1ccccc1
0.86	0.36	CCCn1cnc2c(c1=O)c1nc3ccccc3nc1n2CCc1ccccc1
0.5	-1.5	Cc1c2c(nc3ccccc13)CC(C)(C)CC2=O
1.1	0.04	CC(=O)N1CCN(CC(=O)Nc2ccccc2Sc2ccccc2)CC1
1.7	-0.5	O=C1COc2ccc(C(=O)COC(=O)c3ccccn3)cc2N1
0.12	0.27	CC1CCCC(NC(=O)Nc2cccs2)C1C (stereo unspecified)
0.08	0.04	Cc1sc2nc(CN(Cc3cccs3)C(=O)C3CC3)[nH]c(=O)c2c1C
0.11	0.46	O=C1COc2ccc(C(=O)c3ccccc3)cc2CN1
0.47	-0.17	COC(=O)[C@@H]1[C@@H](C)OC(=O)N[C@H]1c1ccccc1
1.3	0.32	O=C1NN(c2ccc(F)cc2)C(=O)/C1=C\C=C\c1ccco1
0.8	0.04	CS(=O)(=O)Nc1ccc(C2=NN(C(=O)c3ccco3)C(c3ccco3)C2)cc1 (stereo unspecified)
1.4	-0.14	Cc1nn(-c2ccc(F)cc2)c2c1cc(C#N)c1nc3ccccc3n12
0.17	3.1	CC(C)(C)n1ncc2c(=O)n(CC(=O)NC3CCCCC3)cnc21
0.01	-0.69	O=C(NCCNC(=O)c1ccccn1)c1cccc(F)c1
0.09	0.43	CN(C1CCCCC1)S(=O)(=O)c1ccc(Cl)c(C(=O)O)c1
0.86	0.19	CCC1CCCCN1C(=O)/C=C/c1ccc2c(c1)OCO2 (stereo unspecified)
0.05	-1.2	O=C(c1cc(-c2ccccc2)nn1CC1CC(c2cccnc2)=NO1)N1CCOCC1 (stereo unspecified)
2.2	1.8	COc1ccc(C2(CNC(=O)c3ccco3)CCOCC2)cc1
1.8	3.3	CCOC(=O)c1c(C)nn(-c2ccc(NC(=O)/C=C/C(=O)O)cc2)c1C
0.21	-0.04	O=C1CN(C(=O)N[C@@H](Cc2ccccc2)C(=O)N[C@H](Cc2ccccc2)C(=O)O)c2ccccc2N1
0.56	0.44	COc1ccc(/C=C/C(=O)Nc2cccc(F)c2)cc1S(=O)(=O)N1CCOCC1
0.05	-0.26	COC(=O)c1cc(-c2cccs2)nn1-c1ccccc1
2.2	-0.49	Cc1ccc2ccccc2c1NC(=O)Cn1nnc(-c2cccnc2)n1
0.49	-0.05	CCN1CCN(C(=O)c2cc3c(OC)c(OC)c(OC)cc3[nH]2)CC1
0.55	-1.7	O=C(COC(=O)c1cccnc1Cl)Nc1ccccc1OC(F)F

Profiles from above. Values in the order: KCNQ2 enhance	KCNQ2 enhance baseline
COc1ccc(-n2c(=O)cc(N3CC(C)OC(C)C3)[nH]c2=O)cc1 (stereo unspecified) is entered as 0.64	0.38
COc1ccc(C2SCCN2C(=O)c2ccc([N+](=O)[O-])cc2)cc1 (stereo unspecified) is entered as 0.09	-0.86

The results go on.
KCNQ2 enhance	KCNQ2 enhance baseline	molecule
0.04	0.9	S=C(NCc1ccc(Cl)cc1)N1CCN(c2ccccn2)CC1
0.66	-1.1	COCCOc1ccc(C(F)(F)F)cc1NC(=O)c1ccccc1F
0.1	-0.21	O=S(=O)(Nc1ccc(N2CCCCC2)cc1)c1ccc(F)c(F)c1
0.14	-0.98	CCN(CC)C(=O)COc1ccc2c(-c3ccccc3)cc(=O)oc2c1
0.05	1.1	Cn1c(N2CCOCC2)nc2c1c(=O)n(Cc1ccc(Cl)cc1)c(=O)n2C
0.11	-0.95	Cc1cc(OC(C(=O)O)c2ccccc2)c2c(C)c(Cc3ccccc3)c(=O)oc2c1 (stereo unspecified)
0.61	0.91	COC1CCCN(Cc2nc(Cc3ccccc3F)no2)C1 (stereo unspecified)
0.05	-0.05	CCOC(=O)C1CCN(C(=O)C2CCN(S(=O)(=O)N3CCC4(CC3)OCCO4)CC2)CC1
0.77	0.61	Cc1ccc(-c2nnc(Nc3ccc(CC(N)=O)cc3)c3ccccc23)cc1S(=O)(=O)NCCO
1.4	0.08	O=C(Nc1cccnc1)c1ccc(NC(=O)c2ccco2)cc1
1.4	-0.47	NC(=O)C1CCN(C(=S)NCc2ccc3c(c2)OCO3)CC1
0.35	0.84	Cc1noc(/C=C/N(C)C)c1S(=O)(=O)N1CCCC(C(=O)NCc2cccs2)C1 (stereo unspecified)
1	2.8	CCc1nnc(NS(=O)(=O)c2ccc(N3C(=O)C4CC=C(Cl)CC4C3=O)cc2)s1 (stereo unspecified)
0.42	-0.94	CC(C)N(Cc1ccccc1)C(=O)Cn1c(=O)cnc2ccccc21
1.2	1.2	Cc1ccc(S(=O)(=O)Nc2nc3ccc(N)cc3s2)cc1
0.02	-1.9	COc1ccc(N2CC(C(=O)Nc3ccc(S(=O)(=O)N4CCCC4)cc3)CC2=O)cc1 (stereo unspecified)
0.98	0.41	C/C(=N/Nc1ccc([N+](=O)[O-])cc1)c1c[nH]c2ccccc12
0.41	-1.7	CC1CC(C)CN(c2ccc([N+](=O)[O-])cc2-c2nn[nH]n2)C1 (stereo unspecified)
1.7	-0.18	COc1ccc(NC(=O)Nc2ccc(Br)cn2)cc1
0.13	-0.38	O=C(COc1nncc2ccccc12)NCCC1=CCCCC1
0.79	0.72	Cn1nc(C(=O)N2CCOCC2)c([N+](=O)[O-])c1C(=O)N1CCOCC1
2.3	3.1	O=C1CN(C(=O)c2cc3ccccc3oc2=O)C(c2ccc(F)cc2)c2cc(F)ccc2N1 (stereo unspecified)
1.2	-1.1	C=CCn1c(SCC(=O)NCC2CCCO2)nnc1C1CCCCC1 (stereo unspecified)
1.8	-0.32	CCC(=O)Nc1nc2c(OC)ccc(C)c2s1
0.09	-0.63	Cc1ccc(C(c2sc3ncnn3c2O)N2CCC(C)CC2)cc1 (stereo unspecified)
0.9	-0.66	CC1=C(C(=O)OC(C)C)C(c2cccs2)N2C(=O)CCSC2=N1 (stereo unspecified)
1.2	0.89	CCOn1c(=O)c(=O)n(OCc2ccccc2)c2ccccc21
0.28	1	CCC(C)(C)C1CCc2c(sc(NC(=O)c3cccs3)c2C(N)=O)C1 (stereo unspecified)
1.1	1.7	Cc1ccc(S(=O)(=O)NC2=NCCCCC2)cc1
1.4	0.08	COc1cc(CNC(C)(C)CO)cc(Br)c1OCc1ccccc1

(more compounds)
KCNQ2 enhance	KCNQ2 enhance baseline	molecule
0.31	-0.02	COc1ccc(OC(=O)CCCN2C(=O)c3ccccc3C2=O)cc1
0.03	0.52	O=C1CN(C(=O)c2ccc(Cl)c([N+](=O)[O-])c2)c2ccccc2N1
1.4	-1	CN(C)/C=C(\C=O)c1ncc(C(F)(F)F)cc1Cl
0.39	-0.83	O=C1NC(c2ccc(F)cc2)Oc2ccccc21 (stereo unspecified)
1.1	0.43	CN(CCOC(=O)/C=C/c1ccccc1)C(C)(C)C
0.37	-1.2	O=C(COc1ccc(Cl)cc1Cl)NCCCN1CCOCC1
0.54	0.3	CC(Oc1ccc(Cl)cc1)C(=O)N1CCCc2ccccc21 (stereo unspecified)
0.7	-1.4	Cc1nc(C)c(CCNC(=O)c2cccc(Cl)c2)s1
0.88	-1.9	COCCCn1cn[nH]c1=S
0.11	0.27	O=c1c2ccccc2nc2n1CCC2O (stereo unspecified)
0.43	2.1	Cn1c(SCC(=O)Nc2nnc(-c3ccccc3)o2)nnc1C1CC1
0.49	0.28	O=C(CSc1nnc(-c2ccc(Cl)cc2)n1CC1CCCO1)NC1CCS(=O)(=O)C1 (stereo unspecified)
0.89	·	O=C(Nc1cccc2nsnc12)c1cccs1
0.15	-0.51	N#CCCN=C(NS(=O)(=O)c1ccccc1)c1ccccc1
0.93	-0.27	COc1ccc2nc(NC(=O)C3CCN(S(=O)(=O)c4cccnc4)CC3)sc2c1
0.45	-0.39	Cc1cc(C)n(C(=O)CNC(=O)c2ccco2)n1
0.56	2.3	COC(=O)c1ccc(NC(=O)COc2ccc(S(=O)(=O)NC(C)(C)C)cc2)cc1
0.84	-0.02	COc1cccc(CN(C)C(=O)c2[nH]c(C)c(C(C)=O)c2C)c1OC
2.6	0.01	O=C(CNC(=O)c1cccc(F)c1)N/N=C/c1ccc(O)c([N+](=O)[O-])c1
2.2	-1.4	COc1cccc(-n2c(Cc3cc(=O)[nH]c(=O)[nH]3)nnc2SCc2cccc(C(F)(F)F)c2)c1
0.82	-2	COc1ccccc1-n1nnnc1SCC(=O)NCC1CCCO1 (stereo unspecified)
0.51	-0.04	COc1ccc(C(=O)NCC(=O)OCC(=O)NCCC2=CCCCC2)cc1
2	0.03	NC(=O)C1CCCN(C(=O)CCc2nnc(C3(c4ccc(Cl)cc4)CCC3)o2)C1 (stereo unspecified)
1.3	-0.02	O=C(COc1ccc(/C=N/NC(=O)c2cccnc2)cc1)Nc1ccccc1
0.14	-0.68	CCOC(=O)N1CCC(=NNc2ccc(S(=O)(=O)N3CCOCC3)cc2[N+](=O)[O-])CC1
1.6	-0.93	CC(C)(C)C(=O)N(Cc1ccccc1)c1ccccn1
0.22	-0.02	Cc1cc(C(=O)CSc2n[nH]c(-c3ccccc3F)n2)c(C)n1Cc1cccs1
0.67	-0.91	Cc1ccc(CN2CCN(Cc3cnc(C)s3)CC2CCO)o1 (stereo unspecified)
1.2	0.74	C=CCn1c(SCC(=O)Nc2c(C)cccc2C)nnc1-c1cnccn1
0.91	0.23	CCCNC(=O)COC(=O)c1ccc(S(=O)(=O)N2CCCCCC2)cc1

Four compounds out of the list, arranged by molecular weight, falling.
KCNQ2 enhance	KCNQ2 enhance baseline	molecule
0.93	-0.27	COc1ccc2nc(NC(=O)C3CCN(S(=O)(=O)c4cccnc4)CC3)sc2c1
0.37	-1.2	O=C(COc1ccc(Cl)cc1Cl)NCCCN1CCOCC1
0.67	-0.91	Cc1ccc(CN2CCN(Cc3cnc(C)s3)CC2CCO)o1 (stereo unspecified)
0.11	0.27	O=c1c2ccccc2nc2n1CCC2O (stereo unspecified)
